StopGo reporter – lowers the luciferase signal of an FMDV 2A StopGo reporter | human cells with a luciferase reporter of 2A StopGo recoding; control for the full effect not named in the record | Potency, µM (top dose mostly 57.9 µM), without a hit: at the top dose signal change, negative = less light | hit rate 1.2% among 410,000; active = well fitted falling curve with a large enough effect; inconclusive = small, poorly fitted or top-dose-only effect; inactive = no such curve, though single readings can be large or run the other way; tested in HEK293T cells; also: % is scaled to controls: 0 for no effect and ±100 for the full control effect; nearly all actives have a fitted effect of over 45% in size; luciferase light after 4 h
Cruzain Triton – inhibitors of Trypanosoma cruzi cruzain with detergent; AID 1478; hit rate 0.43% among 200,000; Potency, µM, for inactives: max response, negative = inhibition, actives largely listed as inhibitors; purified cruzain, Z-FR-AMC fluorescence, 0.01% Triton; active = well fitted curve in the direction sought with a large enough effect; inconclusive = small, poorly fitted or top-dose-only effect, or another doubt; inactive = no such curve, though single readings can be large; an effect the other way counts as inactive or inconclusive;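 also: plate controls were neutral wells for no effect and buffer without enzyme for full effect; nearly all actives have a fitted effect of over 40% in size; top concentration of the series not given in the record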
Target sequence (P25779 123-467 limits assumed): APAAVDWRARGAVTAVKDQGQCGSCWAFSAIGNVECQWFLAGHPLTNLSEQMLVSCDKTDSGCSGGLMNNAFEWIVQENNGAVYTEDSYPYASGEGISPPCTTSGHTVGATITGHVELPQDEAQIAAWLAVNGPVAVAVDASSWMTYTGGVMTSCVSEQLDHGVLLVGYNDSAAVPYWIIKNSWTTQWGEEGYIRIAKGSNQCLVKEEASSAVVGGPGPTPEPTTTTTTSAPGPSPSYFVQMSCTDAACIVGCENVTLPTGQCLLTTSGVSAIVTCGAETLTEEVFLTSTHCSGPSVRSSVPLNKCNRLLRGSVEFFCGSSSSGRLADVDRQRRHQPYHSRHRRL
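Detergent-containing run (0.01% Triton X-100) in acetate buffer pH 5.5 with 5 mM DTT: enzyme at 1.5 nM final, 15 min compound preincubation at room temperature, then 2 uM Z-FR-AMC substrate. Activity taken as 60 s fluorescence increase at 360/450 nm.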
MARV entry inh – inhibitors of Marburg virus binding or cell entry. Marburg virus pseudotyped entry inhibition, cell reporter; control for the full effect not named in the record; about a third of the inactives were read at about 46 µM. Potency, µM (titrated, usually from 37.8 µM), for the others: top-dose activity change, negative = inhibition, actives largely listed as inhibitors. hit rate 1.8% among 300,000. AID 540276; active = well fitted inhibition curve with a large enough effect; inconclusive = small, poorly fitted or top-dose-only effect, or effect the other way; inactive = flat fitted curve, though single readings scatter; tested in HEK293 cells; about a fifth of its hits are not listed in these tables; also: % is scaled to controls: 0 for no effect and ±100 for the full control effect; luciferase read-out
Cruzain inh noDet – inhibitors of Trypanosoma cruzi cruzain without detergent; P25779; purified cruzain, Z-FR-AMC fluorescence, no detergent; Potency, µM, inactives show max response, negative = inhibition, most hits filed as inhibitors; hit rate 2.3% among 200,000; AID 1476; active = well fitted curve in the direction sought with a large enough effect; inconclusive = small, poorly fitted or top-dose-only effect, or another doubt; inactive = no such curve, though single readings can be large; an effect the other way counts as inactive or inconclusive;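 also: plate controls were enzyme without inhibitor for no effect and buffer without enzyme for full effect; nearly all actives have a fitted effect of over 40% in size; top concentration of the series not given in the record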
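Detergent-free condition (0.00005% Triton X-100) in acetate buffer pH 5.5 with DTT. 1.5 nM enzyme and compound were pre-mixed 15 min, then 2 uM Z-FR-AMC substrate added; reaction progress from fluorescence change between first and third reads (60 s).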
RE007 growth inh – less growth of the S. pombe RE007 Vpr strain. S. pombe RE007 Vpr strain, BacTiter-Glo ATP luminescence, 24 h; control for the full effect not named in the record. Potency, µM (titrated, usually from 92.2 µM), inactives show at the highest dose activity change, negative = less growth. hit rate 0.21% among 360,000; active = well fitted falling curve with a large enough effect; inconclusive = small, poorly fitted or top-dose-only effect; inactive = no such curve, though single readings can be large or run the other way;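 also: % is scaled to controls: 0 for no effect and ±100 for the full control effect; nearly all actives have a fitted effect of over 50% in size; the assay follows cell death caused by Vpr and the record does not say whether a fall means rescue or toxicity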
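Fission yeast strain RE007, carrying one chromosomally integrated HIV-1 vpr copy, was seeded at OD 0.01 in PMG+AL medium with 23 nL pinned compound. After 24 h at 30 °C and 99% humidity, viability was read by BacTiter-Glo luminescence.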
SARS PLpro yeast – blocks SARS-CoV papain-like protease in a yeast assay; AID 485353; hit rate 0.19% among 330,000; S. cerevisiae expressing SARS-CoV PLpro, growth rescue; control for the full effect not named in the record; Potency, µM (doses to about 32.9 µM), inactives show at the top dose activity, positive = growth rescue; also: 0% is about no effect; nearly all actives have a fitted effect of over 55% in size; growth read by luminescence after 48 h
NS1 function inh – blocks influenza NS1 protein function; Potency, µM (titrated, usually from 46.1 µM), without a hit: at the top dose activity, positive = more growth; S. cerevisiae slowed by influenza A NS1, growth recovery by OD600; AID 2326; hit rate 0.4% among 270,000; also: actives are rising curves; nearly all actives have a fitted effect of over 50% in size
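OD600 was taken as the measure of yeast growth restored by compound in an NS1-expressing S. cerevisiae strain. Cells had been washed out of glucose medium and diluted 1:100 into galactose -URA medium, pH 6.0.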
LASV entry inh – Lassa virus entry inhibition; Potency, µM (highest dose often 37.9 µM), inactives show top-dose activity change, negative = inhibition, most hits filed as inhibitors; hit rate 1.2% among 300,000; Lassa virus pseudotype entry inhibition, cell reporter; control for the full effect not named in the record; active means well fitted inhibition curve with a large enough effect; inconclusive means small, poorly fitted or top-dose-only effect, or effect the other way; inactive means flat fitted curve, though single readings scatter; tested in HEK293 cells; also: % is scaled to controls: 0 for no effect and ±100 for the full control effect; nearly all actives have a fitted effect of over 50% in size; luciferase read-out
Active calls of the source: *; ? = inconclusive; / = not tested or not shown; [ ] = another dose, or the depositor's remark. Unless noted, calls follow the shape of the dose curve; as a rule, active means well fitted rising curve with a large enough effect; inconclusive means small, poorly fitted or top-dose-only effect; inactive means no such curve, though single readings can be large or run the other way. Potency is read from the fitted curve at half-maximal effect.

SMILES	StopGo reporter	Cruzain Triton	MARV entry inh	Cruzain inh noDet	RE007 growth inh	SARS PLpro yeast	NS1 function inh	LASV entry inh
COc1cc(/C=C/C(=O)O)cc(S(=O)(=O)NCCCC(=O)O)c1OC	-3%	/	15%[46.1 µM]	/	-7%	1%	7%	9%[46.1 µM]
CCN(CC)S(=O)(=O)c1ccc(N/N=C(\C)c2ccncc2)nc1	-1%	/	?	/	-1%	-3%	-8%	2%[46.1 µM]
CC1(c2cccc([N+](=O)[O-])c2)CC(C)(C)N(C(=O)c2ccccc2)c2ccccc21 (centres undefined)	?	-7.2%	1%	-29%	-2%	/	5%	-1%
CC1(C)c2[nH]c3ccccc3c2C[C@H]2C(=O)N(N)CC(=O)N21	-11%	/	4%[46.1 µM]	/	12%	1%	1%	3%[46.1 µM]
CCCCC(OC(=O)c1ccco1)C(=O)NCc1ccc(C)cc1 (centres undefined)	6%	/	?	/	10%	-1%	9%	2%
N#Cc1c(-c2ccccc2)nc(SCC(=O)Nc2nnc(C(F)(F)F)s2)[nH]c1=O	-14%	/	?	/	10%	2%	/	-2%[46.1 µM]
CCOC(=O)c1c(C)[nH]c(C(=O)/C(C#N)=C/c2ccc(OC(F)F)c(OC)c2)c1C	0%	-8.7%	-26%	23%	-15%	-17%	?	13%
COc1ccc(C2N(c3ccc(Cl)cc3)N=C(C(C)=O)N(C)N2C(C)=O)cc1 (centres undefined)	?	/	?	/	-18%	-2%	/	?
O=C(O)c1ccc(Sc2nnnn2-c2ccccc2)c([N+](=O)[O-])c1	4%	-0.8%	2%[46.1 µM]	0%	-8%	-5%	5%	-18%
O=C(c1ccc(CNc2c(N3CCCC3)c(=O)c2=O)cc1)N1CCN(C2CCCCC2)CC1	-11%	-3.5%	-20%	-6%	-4%	-13%	4%	-1%
CCCCNC(=O)C(=O)NC(C)CCc1ccccc1 (centres undefined)	-13%	1.5%	22%	-4%	10%	8%	-1%	-12%
Cc1cc(C(=O)N2CCN(c3ncccn3)CC2)c2cc(F)ccc2n1	-29%	-1.4%	-6%	-5%	5%	2%	17%	13%
COc1ccc(NCc2n[nH]nc2-c2ccccc2)cc1Cl	-9%	-6.4%	?	3%	3%	-11%	-46%	?
CCCN(CCC)CCCNC(=S)Nc1ccc2nc3n(c(=O)c2c1)CCCCC3	-12%	-4.0%	?	1%	-9%	-3%	5%	?
Cc1cc(=O)n2[nH]cc(-c3ccccc3)c2n1	-2%	/	?	/	2%	-3%	28%	25%
O=CN(CCN(C=O)CN1CCCCC1)CN1CCCCC1	-7%	4.4%	-7%	5%	-13%	4%	2%	7%
CCOc1cc(N2CCOCC2)c(OCC)cc1NC(=O)COC(=O)COc1ccc(C#N)cc1	-11%	/	10%	/	-4%	-1%	-12%	10%
COC(=O)CSc1nc2sccc2c(=O)n1-c1ccccc1	-18%	/	0%[46.1 µM]	/	16%	3%	2%	?
CCOc1cc(/C=N/NC(=O)Cc2ccc(C(F)(F)F)cc2[N+](=O)[O-])c(Br)cc1OC	-24%	2.5%	-8%[46.1 µM]	?	3%	5%	11%	-17%
Cc1ccc(NC(=S)NC(=O)Cc2ccccc2)c(O)c1	76%[activator]	/	-27%	/	1%	4%	-9%	0%
O=C(COC(=O)c1ccccc1-c1nc2ccccc2s1)NC1CCS(=O)(=O)C1 (centres undefined)	-10%	-2.3%	4%	6%	-16%	-27%	-14%	6%
NC(N)=NS(=O)(=O)c1ccc(NC(=S)NC(=O)c2ccccc2)cc1	15%	/	/	/	-4%	-4%	0%	/
Cc1ccc(NC(=O)N2CCCC2C(=O)NCc2ccc3c(c2)OCO3)cc1 (centres undefined)	11%	/	0%[46.1 µM]	/	2%	-4%	-12%	-7%[46.1 µM]
O=c1cc(-c2ccccc2)ss1	-5%	/	-2%[46.1 µM]	/	-5%	/	/	27%[46.1 µM]
Cc1cccn2c(=O)c3cc(C(=O)NC4CCCCC4)sc3nc12	3%	/	12%[46.1 µM]	/	5%	3%	13%	18%[46.1 µM]
CC(C)COc1ccc(Br)cc1CNC(C)(C)C	-11%	/	/	/	1%	0%	-4%	/
Nc1nc(NCCOCCO)nc(NCc2ccccc2)c1[N+](=O)[O-]	-16%	/	-18%[46.1 µM]	/	1%	0%	-3%	28%[46.1 µM]
CNS(=O)(=O)c1cccc(C(=O)OCC(=O)c2ccc3[nH]c(=O)[nH]c3c2)c1	18%	/	3%	/	6%	1%	/	1%
CCC(C)n1c(=N)c(S(=O)(=O)c2ccc(C)cc2)cc2c(=O)n3cc(C)ccc3nc21 (centres undefined)	-13%	0.5%	1%[46.1 µM]	0%	/	/	/	13%[46.1 µM]
CC(=O)c1ccc(N2CCN(S(=O)(=O)c3ccc(-c4cc(C(F)(F)F)on4)s3)CC2)cc1	-18%	1.5%	/	-4%	/	/	/	5%[46.1 µM]
O=[N+]([O-])c1ccc(Oc2cccc(Br)c2)c2ccncc12	-33%	-5.2%	?	0%	-17%	-33%	-55%	-2%
O=C(OCC(=O)N1CCc2ccccc21)c1ccc(Cl)nc1	56%[activator]	0.7%	-1%	-3%	2%	-6%	-15%	6%
CC12CC3CC(C)(C1)CC(CN1CCOCC1)(C3)C2	-18%	4.0%	8%	-5%	3%	6%	-3%	?
CC(=O)Nc1ccc(NC(=O)CSc2nc(=O)n(Cc3ccncc3)c3c2CCC3)cc1	-7%	/	11%[46.1 µM]	/	-1%	3%	/	14%
Cc1cc(C(=O)COc2cccc(-n3cnnn3)c2)c(C)n1-c1ccccc1	?	-6.7%	-8%	20µM*	-4%	-10%	-11%	?
CCc1ccc(OCC(=O)Nc2cc(-c3ccc(C)cc3)no2)cc1	-2%	-3.0%	25%[46.1 µM]	?	/	/	/	5%[46.1 µM]
CCOC(=O)N1CCN(C(=O)c2ccccc2NS(=O)(=O)c2ccc(C)cc2)CC1	-9%	/	-12%	/	-5%	5%	15%	?
COc1cc(C2c3c(oc4ccccc4c3=O)C(=O)N2Cc2ccncc2)ccc1O (centres undefined)	-25%	-2.8%	-12%	-3%	-4%	0%	?	11%
CCC(C(=O)Nc1ccc(OC)c(Cl)c1)c1ccccc1 (centres undefined)	-22%	-7.4%	?	?	4%	-56%	-4%	-5%
COc1ccc(OCCC(=O)OCC(=O)NCc2ccccc2OC)cc1	-14%	/	-19%[46.1 µM]	/	9%	/	/	11%
Cc1nn2c(-c3ccccn3)ccnc2c1Cl	-3%	/	?	/	-7%	1%	/	3%[46.1 µM]
COc1ccc(OC)c(C(=O)CC2(O)C(=O)N(Cc3ccccc3C)c3ccccc32)c1 (centres undefined)	0%	-12%	-2%[46.1 µM]	-8%	/	/	/	-18%[46.1 µM]
Cc1ccccc1Nc1nc(-c2sc(NC(=O)c3ccco3)nc2C)cs1	-9%	-2.5%	/	?	-13%	-5%	?	/
C/C=C(\C)C(=O)N1CC2(CC(c3cccc(NC(=O)COc4ccc(Cl)cc4)c3)=NO2)C[C@@H]1C(N)=O (some centres undefined)	-10%	/	/	/	-8%	3%	-3%	/
CC(=O)c1ccc(NC(=O)COC(=O)c2c3c(nc4ccccc24)/C(=C\c2cccs2)CCC3)cc1	?	5.1%	8.9µM*	7.9µM*	-9%	10%	?	?
O=C(COC(=O)CCCNC(=O)c1ccc(Cl)cc1)Nc1cc(Cl)ccc1Cl	-13%	-14%	12%	2%	0%	-16%	2%	5%
Cc1ccc(C(=O)O/N=C\c2ccc(N3CCCCC3)c([N+](=O)[O-])c2)cc1	-27%	-3.7%	7%	-5%	3%	-6%	9%	?
COc1ccc(CCNS(=O)(=O)c2cc3c(cc2C)NC(=O)CO3)cc1OC	-12%	/	/	/	-3%	-9%	7%	/
COc1cc2c(cc1OC)-c1cc(NC3CCCC3)nc(=O)n1CC2	12%	-23%	-8%	?	7%	4%	-13%	2%
Cc1ccsc1C(=O)OCC(=O)NCc1ccco1	22%	/	12%	/	-6%	0%	4%	-2%
O=C(NNC(=O)c1ccc2ccccc2c1)c1cccc(Br)c1	-1%	/	-23%[46.1 µM]	/	-12%	/	/	/
CC(=O)NCC(=O)N(Cc1ccco1)C1(C(=O)NC2CCCCC2)CCCCC1	4%	-2.7%	0%	10%	-13%	4%	5%	-7%
Cc1nc(-c2cccnc2)sc1C(=O)N/N=C/c1ccccc1Cl	0%	/	2%[46.1 µM]	/	-24%	1%	-2%	11%
COCc1n[nH]c(=S)n1-c1cccc2ccccc12	15%	0.9%	3%	-6%	-1%	-2%	8%	17%
COCc1cc(C)nc(SCC(=O)Nc2ccc3c(c2)OCO3)c1C#N	-2%	0.0%	-8%	-4%	1%	1%	6%	11%
O=C1NC(=O)C(=Cc2c(Cl)cccc2Cl)C(=O)N1	?	/	-2%	/	13%	/	/	2%
COc1ccc(NC(=O)CC2SC(N)=NC2=O)c([N+](=O)[O-])c1 (centres undefined)	-13%	/	/	/	-6%	0%	3%	/
CCCCC(=O)Nc1nnc(C)s1	-4%	2.6%	-6%	-14%	-1%	11%	5%	3%
Cc1ccccc1CNC(=O)CN(c1cccc(C)c1C)S(C)(=O)=O	-14%	1.2%	/	-1%	/	/	/	?
COc1ccc(CCNS(=O)(=O)c2cn(C)c(=O)n(C)c2=O)cc1OC	-15%	10%	/	-5%	7%	0%	-11%	/
C/C=C/c1ccc(OCCCNCC(C)O)c(OC)c1 (centres undefined)	-18%	3.0%	-12%	-3%	1%	1%	8%	-1%
COc1ccc(C(O)P(=O)(OCCC(C)C)c2ccc(N(C)C)cc2)cc1 (centres undefined)	1%	/	4%	/	6%	0%	1%	/
CN(C)C(CNC(=O)c1ccc(C2SCCS2)cc1)c1ccccc1 (centres undefined)	30%[activator]	/	2%	/	6%	-1%	18%	4%

Bioassay records from PubChem BioAssay.
